# Compound activity: PubChem BioAssay, National Center for Advancing Translational Sciences (NCATS)
# ClpP mod: qHTS Assay for Activators of ClpP; actives 1.9% (n = 340,000); purified B. subtilis ClpP, FRET peptide cleavage, 20 min; Potency, µM (highest dose often 57.5 µM), inactives show at the highest dose activity change, negative = active; active = well fitted falling curve with a large enough effect; inconclusive = small, poorly fitted or top-dose-only effect; inactive = no such curve, though single readings can be large or run the other way; note: potency is the fitted concentration of half-maximal effect; the source files actives as falling curves though it sought activators and does not explain the sign; nearly all actives have a fitted effect of over 65% in size; many hits overshoot -100%
# Target sequence (P80244 whole entry, looked up): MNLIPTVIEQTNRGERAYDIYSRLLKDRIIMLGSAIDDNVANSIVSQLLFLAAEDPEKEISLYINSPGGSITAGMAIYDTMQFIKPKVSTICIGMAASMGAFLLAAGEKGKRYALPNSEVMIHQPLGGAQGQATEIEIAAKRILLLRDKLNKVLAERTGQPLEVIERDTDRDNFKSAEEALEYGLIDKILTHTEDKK
#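 Buffer: 100 mM Tris/HCl pH8, 100 mM KCl, 0.05% low protease BSA, 2.5% glycerol, 0.01% Tween-20. ClpP 10 microg/mL final; 20 min RT; delta FRET normalized to ADEP and DMSO controls.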
# gsp agonist: agonists of gsp mutant (McCune-Albright syndrome); Potency, µM (doses to about 76.9 µM), for the others: top-dose activation (cAMP increase), usual class: activators; gsp mutant cells, cAMP HTRF, 30 min; control for the full effect not named in the record; actives 0.13% (n = 340,000); AID 624287; active = well fitted activation curve with a large enough effect; inconclusive = small, poorly fitted or top-dose-only effect, or another doubt; inactive = no such curve, though single readings can be large or run the other way; cell line not stated here;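 note: phosphodiesterase inhibitor Ro 20-1724 added with compounds to block cAMP breakdown; potency is the fitted concentration of half-maximal effect; nearly all actives have a fitted effect of over 60% in size; about a fifth of the inactives were tested at one dose only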
#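 Cells stably selected in G418 were plated at 2000/well, grown 16-24 hr, then given compounds in DMSO with the PDE inhibitor […] (300 uM solution added) for 30 min at 37C; cAMP was read by HTRF.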
# Menin MLL FP FL: menin-MLL binding inhibition, fluorescein peptide. Fluorescence polarization, fluorescein-MLL peptide displacement from menin. FP activity change, % at 61.4 µM. 290,000 tested, under 10 active. AID 1766; inconclusive = falling polarisation curve, or a change in total fluorescence; inactive = total fluorescence flat and polarisation flat or rising; no compound was filed as active; the % refers to the polarisation; negative = inhibition;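 note: % of control where 0% means no effect; inhibitors lower the polarisation; unlabelled MLL peptide was the positive control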
# PINK1 expr mod: modulators of PINK1 expression | PINK1 immunofluorescence, high-content cytometry, 24 h | Potency, µM (titrated, usually from 76.6 µM), for the others: at the top dose activation (PINK1 increase), hits mostly activators | actives 0.2% (n = 410,000) | AID 624263; active = well fitted activation curve with a large enough effect; inconclusive = small, poorly fitted or top-dose-only effect; inactive = flat fitted curve, though single readings scatter; cell line not stated here;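 note: potency is the fitted concentration of half-maximal effect; % of control where 0% means no effect; nearly all actives have a fitted effect of over 65% in size; a mitochondrial uncoupler was the plate control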
#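 Compound titrations (5 concentrations, 24 h) on a stable cell line; DMSO and CCCP controls. Endpoint: fixed-cell PINK1 immunofluorescence with mitochondrial, cell and nuclear markers, scanned by microplate cytometer.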
# Sfp PPTase inh: inhibitors of Bacillus subtilis Sfp phosphopantetheinyl transferase. Q9F4F7. Biochemical Sfp PPTase activity, qHTS. Potency, µM, for the others: max response, negative = inhibition, actives largely listed as inhibitors. actives 3.5% (n = 310,000). AID 1490; active = well fitted inhibition curve with a large enough effect; inconclusive = small, poorly fitted or top-dose-only effect, or another doubt; inactive = no such curve, though single readings can be large or run the other way;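 note: the enzyme is Sfp with the accession as filed and its product quenches rhodamine fluorescence; potency is the fitted concentration of half-maximal effect; 0% = enzyme reaction without inhibitor and -100% = no enzyme wells; top concentration of the series not given in the record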
#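 Step 1, compound plus 15 nM Sfp-PPTase, 15 min, room temperature. Step 2, add rhodamine-CoA (5 uM) and BHQ-2-YbbR (12.5 uM). Step 3, read 525/598 nm fluorescence at 0 and 30 min.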
# D2 ag: agonists of human D2 dopamine receptor (beta-arrestin); P14416; DiscoveRx PathHunter D2 beta-arrestin, luminescence, 90 min; 100% = 57 uM dopamine signal; activation, % (no concentration beside the values); actives 0.084% (n = 360,000); in the data active = activation above about 40%; inconclusive = about 15% to 40%; inactive = below about 15%; note: compound concentration not given in the record; the text of the record calls up to 30% inactive
# Target sequence (P14416 whole entry, looked up): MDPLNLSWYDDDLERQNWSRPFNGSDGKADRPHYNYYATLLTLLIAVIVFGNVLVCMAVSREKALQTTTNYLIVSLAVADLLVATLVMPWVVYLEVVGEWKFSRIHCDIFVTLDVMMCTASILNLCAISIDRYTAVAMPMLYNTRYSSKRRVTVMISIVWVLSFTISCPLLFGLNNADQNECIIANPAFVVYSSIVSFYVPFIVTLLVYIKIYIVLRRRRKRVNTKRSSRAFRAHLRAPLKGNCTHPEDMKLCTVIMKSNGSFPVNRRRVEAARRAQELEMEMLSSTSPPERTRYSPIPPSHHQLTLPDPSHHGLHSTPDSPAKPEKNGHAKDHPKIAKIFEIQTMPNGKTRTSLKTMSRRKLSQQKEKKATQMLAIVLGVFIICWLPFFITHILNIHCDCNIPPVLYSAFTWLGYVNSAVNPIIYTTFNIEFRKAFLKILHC
#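 DiscoveRx PathHunter D2 beta-arrestin cells (2,100/well) attached overnight, then compound-stimulated 90 min at 37 C in HBSS/10 mM HEPES/0.1% Tween-20 buffer; beta-galactosidase complementation read by luminescence after 1 h at ambient temperature. Dopamine 57 uM final (EC100) as control.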
# gsp antagonist: gsp mutant antagonism. gsp-mutant cells, cAMP HTRF, 30 min; control for the full effect not named in the record. Potency, µM (titrated, usually from 76.9 µM), without a hit: at the highest dose activity change, negative = inhibition, actives largely listed as inhibitors. actives 0.4% (n = 340,000). AID 624288; active = falling curve of any shape with a large fitted effect; inconclusive = falling curve, mostly with a smaller effect; inactive = flat or rising curve; cell line not stated here;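 note: intracellular cAMP measured with PDE inhibitor Ro 20-1724 present during compound exposure; potency is the fitted concentration of half-maximal effect; % is set by controls: 0 for no effect and ±100 for the full control effect; nearly all actives have a fitted effect of over 65% in size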
#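 G418-selected cells were plated in DMEM/10% FBS for 16-24 h at 37C, then treated with compounds plus the PDE inhibitor […] (300 uM solution added) for 30 min at 37C. Intracellular cAMP was measured by HTRF after 30 min lysis at room temperature.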
# Active calls of the source: *; ? = inconclusive; . = no result given; & = joins results of further samples; [ ] = another dose, or the depositor's remark. The order is random. Share with any hit: about 5.1%.
Molecule,ClpP mod,gsp agonist,Menin MLL FP FL,PINK1 expr mod,Sfp PPTase inh,D2 ag,gsp antagonist
Cc1ccc(NC(=O)CN2CCCCC2)c2c1CC(C)(C)O2,-1.4%,-26.0%,3.8,1.8%,2.0%,2.0,-6.7%
Cc1ccc(N/N=C(\C#N)C(=N)N2CCCCCC2)cc1,.,1.2%,-1.4,0.6%,-7.2%,-4.9,-9.6%
CCOC(=O)CCNC(=O)c1ccc2nc(C3CCCCC3)oc2c1,.,-57.2%[inhibitor],0.9,2.0%,21.1%,4.2,5.6%
Cc1cc(NC(=O)COC(=O)c2ccco2)no1,.,-22.3%[15.4 µM],-0.2,1.1%,4.2%,-0.4,11.0%
NC(N)=NS(=O)(=O)c1ccc(N)cc1,-0.5%,.,-1.2,-0.1%,2.9%&10.7%&14.0%,0.6,-2.9%
Cc1ccc(OCCC(=O)OCC(=O)NC(=O)NCc2ccccc2)cc1,1.4%,-2.0%,.,-0.3%,.,-4.9,6.5%
Cc1nnc(SCC(=O)NCC2CCCCC2)n(N)c1=O,-3.2%,6.9%,-1.4,0.2%,12.4%,-0.7,6.9%
O=C(COC(=O)CN1C(=O)c2ccccc2C1=O)NC1CCCC1,0.1%,17.2%[15.4 µM],6.0,4.4%,12.9%,-3.0,-34.9%
COc1ccccc1CNc1ncncc1-c1ccc(N(C)C)cc1,.,.,-4.4,0.3%,-5.7%,.,.
COc1cccc(NC(=O)COC(=O)c2cc(S(=O)(=O)N3CCOCC3)ccc2C)c1,1.4%,-32.1%[inhibitor],3.2,-0.6%,-8.5%,-1.2,-11.1%
CCCNC(=O)Nc1cccc(NC(C)=O)c1,1.8%,29.3%,-0.3,3.7%,0.2%,-6.0,0.5%
Cc1ccc(S(=O)(=O)N2CCN(C(=O)CCn3cncn3)CC2)cc1,0.1%,-26.5%,-0.9,0.9%,15.9%,-2.6,-2.4%

# An excerpt of these results, with values under each structure.
# Every second line gives: ClpP mod | gsp agonist | Menin MLL FP FL | PINK1 expr mod | Sfp PPTase inh | D2 ag | gsp antagonist
- Cc1nnc(SCC(=O)NCC2CCCCC2)n(N)c1=O
    -3.2% | 6.9% | -1.4 | 0.2% | 12.4% | -0.7 | 6.9%
- O=C(COC(=O)CN1C(=O)c2ccccc2C1=O)NC1CCCC1
    0.1% | 17.2%[15.4 µM] | 6.0 | 4.4% | 12.9% | -3.0 | -34.9%
- COc1ccccc1CNc1ncncc1-c1ccc(N(C)C)cc1
    . | . | -4.4 | 0.3% | -5.7% | . | .

# Carrying on:
Molecule,ClpP mod,gsp agonist,Menin MLL FP FL,PINK1 expr mod,Sfp PPTase inh,D2 ag,gsp antagonist
O=C1CC(NS(=O)(=O)c2ccc([N+](=O)[O-])cc2)CN1c1cccc(F)c1 (configuration not stated),22.3%,2.6%[15.4 µM],.,-2.0%,.,7.5,-4.5%
CCOc1c(Cl)cc(/C=N/O)cc1OC,-0.8%,-7.3%,1.1,-2.7%,6.9%,-2.1,6.4%
O=C(OCCc1cc2ccccc2c(=O)o1)c1cccc(Br)c1,-9.7%,-37.6%[inhibitor],.,0.5%,.,-1.2,-18.4%
COc1ccccc1OCc1ccc(C(=O)NCC(C)C)o1,.,31.5%,-8.6,-0.9%,14.5%,0.9,8.9%
O=C(c1cc2c(s1)CCCC2)N1CCN(Cc2ccc3c(c2)OCO3)CC1,0.1%,-35.7%[inhibitor],3.3,1.8%,-10.7%,-3.3,?
CC1CCCCC12NC(=O)N(CC(=O)c1ccc[nH]1)C2=O (configuration not stated),-2.0%,5.3%,5.5,-1.3%,5.6%,-1.7,2.7%
Cc1ccccc1Cc1c(C)nc2c(C(=O)N3CCN(Cc4ccc5c(c4)OCO5)CC3)cnn2c1C,31.6µM*,12.7%,.,-1.6%[38.3 µM],.,-3.8,-9.0%
O=C(/C=C/c1ccccc1)NC(=S)N1CCSCC1,.,5.8%[15.4 µM],-0.1,-1.4%,-12.4%,-1.4,9.5%
COC(=O)c1ccc(CNC(=O)CN2C(=O)NC(Cc3ccccc3)(c3ccccc3)C2=O)cc1 (configuration not stated),0.9%,-6.4%,.,6.0%,.,-2.7,.
CCCC(=O)Nc1nc2ccc(S(=O)(=O)N3CCCCC3)cc2s1,1.4%,22.5%,3.0,9.0%,6.4%,1.1,14.7%
O=c1[nH]c(Cc2ccc(F)cc2)nc2scc(-c3ccc(F)cc3)c12,-3.7%,2.6%,7.1,6.6%,-78.5%,-0.4,24.2%
CCOC(=O)c1[nH]c2ccc(OC)cc2c1NC(=S)N1CCN(c2ccccc2)CC1,0.2%,6.4%,-2.3,6.1%,3.5%,-2.8,-17.8%
Cc1cccc(-c2nnc3n2N=C(c2ccccc2Br)CS3)c1,-0.6%,-6.3%[15.4 µM],7.9,0.9%,-4.4%,-6.5,?
CC1CCN(C(=O)CSC2=NS(=O)(=O)c3cc(F)ccc3N2)CC1,.,-13.8%[15.4 µM],.,-1.0%,.,-0.7,-11.3%
O=C(Cn1cnc2c(oc3ccccc32)c1=O)NCc1ccco1,-1.9%,?,2.4,.,-2.3%,-2.7,20.0%
CC(=O)NC(Cc1ccc(F)c(F)c1)C(=O)NC1CCN(C(=O)c2ccc(Cl)cc2)CC1 (configuration not stated),.,-9.6%[15.4 µM],-21.3,-0.7%,1.2%,0.4,0.8%
CC(=O)N1CCOc2cc(S(=O)(=O)NC(C)c3ccccc3)c(Cl)cc21 (configuration not stated),-2.8%&-0.9%,10.3%,-1.7,3.7%&4.1%,-4.8%,-3.9,-8.3%
CC(OC(=O)c1cccc(-n2cnnn2)c1)C(=O)N(C)c1ccccc1 (configuration not stated),-1.8%,-2.5%,.,-1.0%,4.0%,-3.9,4.2%
Cc1ccc2cc(C3CC(c4ccco4)=NN3C(=O)CCCC(=O)O)c(Cl)nc2c1 (configuration not stated),-0.7%,-0.3%,8.1,-0.9%,-7.6%,-4.7,-10.9%
CCOC(=O)Cn1c(=NC(=O)c2cc(-c3cccs3)nc3ccccc23)sc2cc(S(N)(=O)=O)ccc21,?,-8.0%[15.4 µM],8.2,?,?,-5.4,-22.6%
O=C(COc1ccccc1Cl)Nc1cc(Cl)ccc1O,-2.7%,-32.3%[inhibitor],-0.6,-1.3%,21.3%,-0.4,9.4%
COCC(=O)N1CCC[C@@]2(CCN(C(=O)Nc3ccccc3)C2)C1,.,.,-0.2,-0.3%,27.6%,.,.
CN(Cc1cccc(F)c1)C(=O)CSc1nnc(C2CC2)n1C1CC1,-6.0%,6.6%[15.4 µM],.,-1.6%,.,-3.4,5.2%
COc1ccc(OC)c(NC(=S)NC(=O)c2ccc(Br)o2)c1,0.7%,17.2%,.,10.1%,9.7%,0.3,?

# Taken from above.
# Result of O=C(COc1ccccc1Cl)Nc1cc(Cl)ccc1O under gsp antagonist: 9.4%
# Result of COCC(=O)N1CCC[C@@]2(CCN(C(=O)Nc3ccccc3)C2)C1 under Menin MLL FP FL: -0.2

# The listing continues.
Molecule,ClpP mod,gsp agonist,Menin MLL FP FL,PINK1 expr mod,Sfp PPTase inh,D2 ag,gsp antagonist
CC(=O)Nc1nnc(Cc2ccccc2)s1,-2.3%,7.8%,0.4,-1.9%,18.0%,0.0,17.6%
CCOC(=O)c1ccc(S(=O)(=O)Nc2ccccc2-c2nnn(CC)n2)cc1,1.5%,4.4%,2.5,1.0%,-7.1%,1.6,?
COCc1c(C(=O)Nc2ccc(C)c(S(=O)(=O)N3CCOCC3)c2)oc2ccccc12,-12.9%,-41.5%[inhibitor],.,2.1%,.,2.3,-12.0%
O=C(N/N=C/c1cccnc1)c1sc2ccccc2c1Cl,-0.8%,-0.9%,-4.1,0.8%,-0.6%,-6.0,2.8%
CCCCN1C(=O)N(c2nnc(C(C)(C)C)s2)C(O)C1c1ccc(C)cc1 (configuration not stated),2.3%,19.2%,6.3,7.4%,5.6%,-3.3,-7.8%
CC(C)n1nnnc1SCC(=O)N1CCN(C(=O)c2ccco2)CC1,1.4%,18.0%,3.0,-2.4%,3.9%,-3.9,24.8%
N=C1C(c2nc3ccccc3s2)=C(O)CN1CCCO,-9.2%,-13.5%,2.9,0.8%,0.1%,-1.9,-0.9%
O=C1/C(=C/c2ccc(O)c(O)c2)Oc2cc(O)ccc21,2.3%,-100.5%[inhibitor],?,3.5%,?,-2.0,-5.1%
C=C(CN(C)C)C(=O)c1ccc(C)cc1C,-1.1%,27.3%,.,-2.2%,.,-7.5,50.1µM*
CC(C)NC(=O)Cn1cc(S(=O)(=O)N2CCCC2)c(S(=O)(=O)N2CCCC2)c1,.,?,-3.1,-1.1%,5.3%,0.1,14.2%
Cc1cc(NC(=O)/C(C#N)=C/c2ccc(-c3cccc(C(F)(F)F)c3)o2)n(-c2ccccc2)n1,-3.7%,0.4%,5.4,10.9%,-0.4%,3.3,2.3%
Cc1cn([C@H]2C[C@H](O)[C@@H](/C=C/C(=O)NCCN3CCCCC3)O2)c(=O)[nH]c1=O,-0.6%,.,.,0.4%,.,-6.7,.
Cc1nnc(SCCn2c(N3CCN(C)CC3)nc3c2c(=O)n(C)c(=O)n3C)s1,-1.4%,-19.3%,1.2,-3.4%,17.2%,-3.2,3.8%
Cc1cc(NC(=O)c2ccc(Cl)cc2)c(C)cc1O,.,29.2%,-1.1,2.6%,7.8%,-3.1,-9.3%
CCCS(=O)(=O)N1CCC(C(=O)NCc2ccco2)CC1,-0.9%,?,1.2,2.8%,0.9%,-4.3,11.3%
CN(C(=O)c1cnccn1)c1c(N)n(Cc2ccccc2)c(=O)[nH]c1=O,0.9%,24.6%,.,6.2%,.,-6.5,5.7%
